Screening data deposited in PubChem BioAssay by National Center for Advancing Translational Sciences (NCATS).
PINK1 expr mod: changes PINK1 expression; Potency, µM (titrated, usually from 76.6 µM), inactives show top-dose activation (PINK1 increase), usual class: activators; PINK1 immunofluorescence, high-content cytometry, 24 h; AID 624263; hit rate 0.2% among 410,000; active = well fitted activation curve with a large enough effect; inconclusive = small, poorly fitted or top-dose-only effect; inactive = flat fitted curve, though single readings scatter; cell line not stated here;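 note: potency is the fitted concentration of half-maximal effect; % of control where 0% means no effect; nearly all actives have a fitted effect of over 65% in size; a mitochondrial uncoupler was the plate control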
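PINK1 protein, normally rapidly degraded, was detected by immunofluorescence after 24 hour compound treatment of a stable cell line. Titration data (5 concentrations) came from laser-scanning cytometry, with CCCP-treated wells as controls.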
ClpP mod: qHTS Assay for Activators of ClpP | ATP-dependent Clp protease proteolytic subunit (Bacillus subtilis (strain 168)), P80244 | purified B. subtilis ClpP, FRET peptide cleavage, 20 min | Potency, µM (titrated, usually from 57.5 µM), for inactives: at the top dose activity change, negative = active | hit rate 1.9% among 340,000; active = well fitted falling curve with a large enough effect; inconclusive = small, poorly fitted or top-dose-only effect; inactive = no such curve, though single readings can be large or run the other way; note: potency is the fitted concentration of half-maximal effect; the source files actives as falling curves though it sought activators and does not explain the sign; nearly all actives have a fitted effect of over 65% in size; many hits overshoot -100%
Target sequence (P80244 whole entry, looked up): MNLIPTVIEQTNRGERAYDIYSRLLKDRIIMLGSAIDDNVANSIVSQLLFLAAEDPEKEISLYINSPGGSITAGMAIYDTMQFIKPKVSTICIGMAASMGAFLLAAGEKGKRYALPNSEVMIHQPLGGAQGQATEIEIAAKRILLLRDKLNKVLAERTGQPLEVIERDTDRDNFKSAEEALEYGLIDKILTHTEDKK
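Purified B. subtilis ClpP, 10 microg/mL final in Tris/HCl pH8 with KCl, BSA, glycerol and Tween-20, cleaved an Abz/nitrotyrosine-quenched decapeptide. Fluorescence (ex 320, em 430) was read at 0 and 20 min at room temperature. Delta was normalized to 5.8 microM ADEP and DMSO/no-enzyme controls.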
TRPV1 potentiator: potentiators of human vanilloid receptor 1 (TRPV1); AID 540277; hit rate 0.02% among 320,000; Q8NER1; potentiation, % at 8.33 µM; TRPV1-expressing cells, Fluo-8 calcium influx, capsaicin EC20 potentiation; host cell line not named in the record; control for the full effect not named in the record; active means potentiation above 80%; inconclusive means 30% to 80%; inactive means below 30%; note: 0% is about no effect
Target sequence (Q8NER1 whole entry, looked up): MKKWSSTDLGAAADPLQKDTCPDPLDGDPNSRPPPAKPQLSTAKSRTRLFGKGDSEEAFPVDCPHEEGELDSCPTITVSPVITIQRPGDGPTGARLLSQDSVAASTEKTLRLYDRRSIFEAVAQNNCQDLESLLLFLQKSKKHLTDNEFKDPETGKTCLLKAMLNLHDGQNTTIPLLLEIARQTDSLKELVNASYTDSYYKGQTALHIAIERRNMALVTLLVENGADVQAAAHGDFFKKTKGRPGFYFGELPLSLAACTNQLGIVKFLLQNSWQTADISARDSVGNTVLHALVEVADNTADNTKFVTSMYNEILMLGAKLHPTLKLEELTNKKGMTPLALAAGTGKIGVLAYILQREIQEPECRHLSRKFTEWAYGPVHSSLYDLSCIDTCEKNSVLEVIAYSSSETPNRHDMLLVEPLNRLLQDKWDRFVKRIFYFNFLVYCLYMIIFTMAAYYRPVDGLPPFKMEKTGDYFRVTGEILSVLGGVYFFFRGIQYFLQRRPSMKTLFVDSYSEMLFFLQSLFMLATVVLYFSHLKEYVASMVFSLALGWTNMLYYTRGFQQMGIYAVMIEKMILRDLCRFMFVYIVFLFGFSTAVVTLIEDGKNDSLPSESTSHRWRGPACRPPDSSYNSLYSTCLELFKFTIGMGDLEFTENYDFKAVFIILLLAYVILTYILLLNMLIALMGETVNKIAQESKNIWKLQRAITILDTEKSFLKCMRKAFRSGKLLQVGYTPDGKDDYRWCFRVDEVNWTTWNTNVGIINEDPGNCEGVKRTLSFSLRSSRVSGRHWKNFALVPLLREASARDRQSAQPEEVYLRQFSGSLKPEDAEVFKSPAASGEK
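Cells expressing TRPV1 were dye-loaded with Fluo-8 and read kinetically: 10 s baseline, 3 min after compound (agonist portion), then 2 min after EC20 capsaicin (allosteric enhancer portion). Calcium-bound dye fluorescence at 480/520 nm.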
Menin MLL FP FL: displaces fluorescein MLL peptide from human menin; Fluorescence polarization, fluorescein-MLL peptide displacement from menin; FP activity change, % at 61.4 µM; 290,000 tested, under 10 active; inconclusive = falling polarisation curve, or a change in total fluorescence; inactive = total fluorescence flat and polarisation flat or rising; no compound was filed as active; the % refers to the polarisation; negative = inhibition;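 note: % of control where 0% means no effect; inhibitors lower the polarisation; unlabelled MLL peptide was the positive control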
Sfp PPTase inh: Sfp phosphopantetheinyl transferase inhibition | Q9F4F7 | Biochemical Sfp PPTase activity, qHTS | Potency, µM, for the others: max response, negative = inhibition, actives largely listed as inhibitors | hit rate 3.5% among 310,000; active = well fitted inhibition curve with a large enough effect; inconclusive = small, poorly fitted or top-dose-only effect, or another doubt; inactive = no such curve, though single readings can be large or run the other way;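 note: the enzyme is Sfp with the accession as filed and its product quenches rhodamine fluorescence; potency is the fitted concentration of half-maximal effect; 0% = enzyme reaction without inhibitor and -100% = no enzyme wells; top concentration of the series not given in the record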
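Compounds were incubated with enzyme (final 15 nM) for 15 min at room temperature before substrate addition started the reaction. Fluorescence at 525 nm excitation, 598 nm emission was recorded immediately and after 30 minutes.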
TRPML1 agonist: human mucolipin-1 channel agonism; TRPML1-expressing cells, Ca2+ dye fluorescence, FDSS; host cell line not named in the record; reference of the full effect not given here; hit rate 0.12% among 410,000; Q9GZU1; AID 624414; activation, % (concentration not given with the values); in the data active = activation above about 50%; inconclusive = about 30% to 50%; inactive = below about 30%; note: 0% is about no effect; the text of the record puts the active cut at 80%
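Cells: TRPML1-DL, 1X Tet inducer, ~16 h at 37 degrees C/5% CO2. Dye: ABD Ca8 no-wash + quencher, 45-90 min RT. Read: 10 s baseline, compound add, 110 s agonist phase; 54-4 EC80 (4uM final), 110 s antagonist phase.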
TRPML1 inh: blocks the human TRPML1 channel | Q9GZU1 | TRPML1-inducible cells, Ca2+ dye fluorescence, FDSS; stronger effect = lower value; inhibition of EC80 agonist-evoked calcium signal | activity change, negative = inhibition, % (concentration not given with the values) | hit rate 0.02% among 390,000 | AID 624415; in the data active means activity change below about -50%; inconclusive means about -30% to -50%; inactive means above about -30%;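 note: stimulus is agonist 54-4 at its EC80 concentration; % is set by controls: 0 for no effect and ±100 for the full control effect; compound concentration not given in the record; the text of the record puts the active cut at -80%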
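TRPML1-DL cells, Tet-induced overnight (~16 h, 37 °C) at 1,500 cells/well, were loaded with Ca8 no-wash dye plus quencher for 45-90 min at room temperature. Compounds were pinned during FDSS kinetic reading; agonist 54-4 at EC80 (4 uM final) then added.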
* marks the source's active call; other numbers are inactive results; ? = inconclusive; . = no result given; [ ] = another dose, or the depositor's remark.

SMILES	PINK1 expr mod	ClpP mod	TRPV1 potentiator	Menin MLL FP FL	Sfp PPTase inh	TRPML1 agonist	TRPML1 inh
Cc1ncc([N+](=O)[O-])n1Cc1ccc(Cl)cc1	0.2%	0.2%	-4	-1.1	5%	.	.
CC(C)N1C(=O)N(c2cccc(Cl)c2)C(C)(O)CC1(C)C (stereo not drawn)	2.0%	.	-21	-3.5	18%	2.0	19
Cc1oc(C(=O)Nc2ccc(C(=O)O)cc2)cc1COc1ccccc1	-2.0%	-4.8%	-3	1.9	3%	-0.1	-11
N#Cc1ccc(Oc2ccc(S(=O)(=O)N3CCCCC3)cn2)cc1	1.6%	-2.8%	-20	.	.	0.5	-17
CN1CCN(C(=O)CCN2C(=O)/C(=C/c3ccccc3Cl)SC2=S)CC1	-2.2%	.	-2	7.3	?	-0.1	-6
Cc1cc(C)nc(Nc2ncc(O)n2-c2ccc(C)c(Cl)c2)n1	-0.3%	-0.1%	-5	-0.4	13%	-0.3	-11
Cc1cccc(-n2c(C)nc3cc(C(=O)NCc4ccc5c(c4)OCO5)ccc32)c1	4.2%	-1.0%	-8	4.0	-18%	0.0	5
Cc1ccccc1NS(=O)(=O)c1ccc(OCC(=O)NCC2CCCO2)cc1 (stereo not drawn)	-1.0%	0.5%	-2	.	0%	0.4	74
O=[N+]([O-])c1nn(-c2ccccc2)[n+]([O-])c1N1CCN(c2ccccc2)CC1	3.3%	.	-3	4.0	19%	-0.2	26
Clc1ccccc1-c1nc(NCCN2CCOCC2)c2ccccc2n1	-1.0%	.	.	0.1	?	.	.
COc1ccc(NC(=O)CCCC(=O)O)cc1Cl	-1.3%	0.4%	3	-6.7	18%	-0.6	57
COc1ccc(CCN2C(=O)C3C4CC(C5C(C(=O)NN)=NOC45)C3C2=O)cc1OC (stereo not drawn)	0.7%	-4.8%	0	1.6	-1%	-0.4	-17
COc1ccc(C(=O)c2ccccc2)cc1CN1CCOCC1	-0.1%	-2.3%	.	.	.	-0.3	1
COc1ccc(NC(=O)C2CCN(c3nc4ccccc4nc3C(F)(F)F)CC2)cc1	2.7%	-1.6%	.	.	.	-0.9	-8
CCOc1ccc(NC(=O)CSc2nnc(N)s2)c([N+](=O)[O-])c1	-0.6%	.	5	-2.6	1%	-0.5	13
O=C(O)Cn1cnc2scc(-c3ccccc3)c2c1=O	0.1%	.	3	8.8	-3%	-0.4	5
Cc1occc1C(=O)Nc1ccc2c(c1)OCO2	1.3%	0.1%	-3	2.6	7%	0.5	3
O=C(NCCN1CCOCC1)/C(=C/c1ccco1)NC(=O)c1ccccc1	-0.3%	-1.3%	-3	-2.0	9%	-0.2	-2
O=S(=O)(NCCc1cn(S(=O)(=O)c2ccccc2)c2ccccc12)c1ccccc1	-1.2%	.	13	.	.	1.1	-5
CCN(CC)CCOC(=O)c1ccc(NC(=O)Cn2ncc3c([nH]c4ccc(C)cc43)c2=O)cc1	7.4%	-27%	.	.	.	1.8	28
COc1cc(C(=O)NC(C)c2cccc3ccccc23)cc(OC)c1OC (stereo not drawn)	3.0%	2.9%	15	-0.8	10%	0.9	-9
CN(C)c1cccc(C(=O)Nc2nc3ccc(S(=O)(=O)N4CCCC4)cc3s2)c1	2.1%	-11%	.	.	.	-0.9	0
Cc1ccc(C(=O)NC2CCc3ccccc3C2=O)cc1 (stereo not drawn)	-0.7%	-1.1%	-27	-3.9	-3%	-1.5	-3
C=CCN(C(=O)CNC(=O)c1ccco1)C(C(=O)NC1CCCC1)c1ccc(OC)cc1 (stereo not drawn)	2.5%	1.0%	?	-1.1	4%	-1.1	-3
Cc1ccc(S(=O)(=O)N(Cc2ccccc2)c2ccccc2C(=O)Nc2ccccc2C(=O)NCc2ccco2)cc1	-1.0%	?	13	-5.5	14%	0.0	-6

Next results
SMILES	PINK1 expr mod	ClpP mod	TRPV1 potentiator	Menin MLL FP FL	Sfp PPTase inh	TRPML1 agonist	TRPML1 inh
COc1cccc(-c2ccc3c(N)c(C(=O)c4ccc(F)cc4)sc3n2)c1	0.9%	-0.1%	.	.	.	22	21
O=c1[nH]c(N2CCc3ccccc3C2)nc2c1CCC2	.	-0.7%	-3	2.3	-7%	1.7	5
Cc1nn(C)c(Cl)c1CN1CCC(CO)(CCOc2ccccc2)CC1	-0.4%	.	-5	2.7	-1%	0.8	-15
Cc1cc(C)c2cc(N)c(Cl)nc2n1	1.3%	4.7%	.	.	.	-0.2	.
CCOC(=O)c1cnc2c(ccc3ccccc32)c1Nc1ccc(Cl)cc1	1.7%	-3.4%	.	.	.	0.9	12
S=C(Nc1ccccc1)N1CCN(C/C=C/c2ccccc2)CC1	1.8%	.	-2	-1.3	3%	0.6	-12
C/C(=N\N=C1\NC(=O)C(CC(=O)Nc2ccc(C)c(Cl)c2)S1)C(C)C (stereo not drawn)	3.9%	.	14	3.0	11%	-0.1	-13
CCOC(=O)N1CCN(Cc2nc3cc(NC(=O)CC(C)C)ccc3n2C(C)C)CC1	6.0%	0.4%	.	.	.	1.5	-14
CC(SC1=NCCN1S(=O)(=O)c1ccccc1)c1ccccc1 (stereo not drawn)	-0.1%	-1.4%	-3	.	13%	2.6	35
O=c1cc(-c2ccc(OCc3ccccc3)cc2)oc2cc(OCc3ccccc3)cc(OCc3ccccc3)c12	0.4%	0.1%	.	.	.	-1.1	-8
O=C(c1ccc(Cl)c(S(=O)(=O)Nc2ccc(F)cc2)c1)N1CCN(c2ccccn2)CC1	1.1%[38.3 µM]	-4.9%	5	2.8	28%	1.1	5
Cc1ccc([N+](=O)[O-])cc1S(=O)(=O)Nc1ccc(C(=O)NCc2ccccn2)cc1	0.6%	-2.7%	2	.	.	-0.3	4
O=C(O)/C=C1\NC(=O)c2ccccc21	-2.2%	-8.1%	-2	6.6	2%	-0.3	53
CCOc1ncccc1C(=O)N1CCN(C(c2ccccc2)c2ccccc2)CC1	-0.8%	.	-13	0.5	8%	1.1	15
O=C(O)C1CSCN1S(=O)(=O)c1cccc2nsnc12 (stereo not drawn)	?	1.7%	6	-0.3	-22%	0.1	-5
COc1ccc(S(=O)(=O)Cc2ccc(C(=O)NC3CCCC3)o2)cc1	0.9%	1.7%	-6	3.0	1%	-0.1	13
COc1ccc(N(CC(=O)NC2CCCC2)C(=O)Cn2nnc(-c3ccc(F)cc3)n2)cc1OC	-1.7%[38.3 µM]	2.0%	1	-1.4	12%	-0.3	-18
CCOc1ccc(CCNC(=O)CCCN2C(=O)c3ccccc3C2=O)cc1OCC	0.3%	-1.7%	5	2.9	19%	-0.1	3
CC(C)(C)CC(C)(C)NC(=O)c1ccc2snnc2c1	0.8%	.	16	4.5	10%	0.2	-23
Cc1nn(C)cc1C(C)NC(=O)c1cc(COc2cccc3cnccc23)on1 (stereo not drawn)	0.0%	16µM*	25	.	15%	-0.4	-17
CCC(C)[C@H](NC(=O)N1CC(=O)Nc2ccccc21)C(=O)N1CCC[C@H]1C(=O)O (stereo partly drawn)	-0.2%	-2.7%	2	2.9	4%	.	.
COC(=O)c1[nH]c2ccc(Cl)cc2c1NC(=O)Oc1ccccc1	-0.3%	10µM*	3	3.3	-18%	-0.4	-2
COc1ccc(C(=O)NC2CC(C)(C)Cc3c2cnn3-c2ccccc2)cc1OC (stereo not drawn)	5.6%	-2.0%	13	.	14%	1.2	-9
O=C(O)c1ccc2c(c1)-c1cc(C(=O)O)ccc1S2(=O)=O	0.0%	-28%	-2	1.7	24%	-0.1	-6
Cc1ccc2occ(-c3nn[nH]n3)c(=O)c2c1	-1.6%	-1.6%	4	-1.9	-12%	2.3	-22

Looked up above.
Cc1cc(C)c2cc(N)c(Cl)nc2n1 | ClpP mod = 4.7%
CCOc1ccc(NC(=O)CSc2nnc(N)s2)c([N+](=O)[O-])c1 | TRPML1 agonist = -0.5

(list continues)
SMILES	PINK1 expr mod	ClpP mod	TRPV1 potentiator	Menin MLL FP FL	Sfp PPTase inh	TRPML1 agonist	TRPML1 inh
N#Cc1nc(Cc2cccc3ccccc23)oc1N1CCCCC1	-2.5%	-26%	1	3.4	-8%	1.7	-19
O=C(O)Cc1nc2nc3c(c(=O)n2[nH]1)CCCC3	-0.9%[38.3 µM]	1.6%	17	1.1	-21%	-0.6	-2
COc1ccc(C(=O)C2CCCN(S(=O)(=O)C(C)C)C2)c(C)c1 (stereo not drawn)	-1.1%	-0.7%	6	1.3	12%	3.7	9
COc1cc2c(cc1OC)CN(C(=O)Nc1ccccc1Cl)CC2	-2.8%	.	-1	1.5	16%	-0.6	-3
CN1CCN(c2ccccc2NC(=S)NC(=O)c2cc3ccccc3o2)CC1	-1.3%	1.8%	-5	1.7	2%	0.6	11
Cc1n[nH]c(C)c1S(=O)(=O)N1CCC(C(=O)N2CCn3c2nc2ccccc23)CC1	0.4%[38.3 µM]	0.4%	-20	-1.8	20%	-0.5	-2
O=C(/C(=N\Nc1ccc(Br)cc1)Sc1nnnn1-c1ccccc1)c1ccccc1	1.1%	-4.3%	-10	8.6	5%	1.3	3
CS(=O)(=O)N1CCN(c2c(Cl)cccc2[N+](=O)[O-])CC1	-0.6%[38.3 µM]	0.4%	-13	1.3	20%	-0.5	1
CC(C)COC(=O)Nc1nnc(Cc2ccccc2)s1	1.0%	.	-12	-4.8	11%	1.1	5
O=C(NC(C(=O)O)c1ccccc1)c1ccccc1 (stereo not drawn)	-1.5%	-0.1%	-5	8.2	5%	1.5	27
Cc1ccc(NC(=O)CN2C(=O)c3ccccc3Sc3ncccc32)c(C)c1	1.0%	0.4%	.	.	.	0.3	0
C/C(O)=C(/C=NCC(=O)O)C(=O)Nc1nccs1	0.1%	.	0	2.5	16%	1.7	11
Cc1ccccc1NC(=O)c1ccc(F)c(S(=O)(=O)N2CCN(c3ccccn3)CC2)c1	5.8%[38.3 µM]	-2.7%	-10	0.6	9%	0.2	11
CC(=O)COc1ccc2c3c(c(=O)oc2c1)CCCC3	-3.9%[38.3 µM]	?	1	0.1	-2%	1.5	5
CC(NC(=O)CSc1nc2ccc(N)cc2s1)c1ccccc1 (stereo not drawn)	-1.1%	-0.4%	-11	0.1	11%	-1.4	-12
Cn1ccnc1SCC(=O)c1cccc(Br)c1	6.9%[38.3 µM]	-1.3%	5	5.8	-3%	0.1	20
CCCCSCc1nc2nc(Cl)c(Cl)nc2[nH]1	?	7.5%	.	.	.	0.1	16
